LANA-H2A inh – blocks KSHV LANA binding to histone H2A/H2B | inhibition, % (test concentration not listed) | AID 2629 | 0.6% of 320,000 active | cell-free LANA-H2A/H2B peptide, fluorescence polarization; in the data active = inhibition mostly above about 10%, no sharp cut-off; inactive = mostly below about 6.7%;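 note: stock transfer was 7.5 nL into about 10 µL; 0% = median of vehicle wells and 100% = median of positive control wells; one replicate is shown; the record names a cut of 25% in any replicate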
Ecoli rRNA inh – inhibitors of bacterial rRNA selective over humanized ribosomes; E. coli WT GFP vs humanized-ribosome RFP mutants, fluorescence, 24 h; stronger effect = lower value; DMSO median 0, no signal -100; GFP signal change (wild-type ribosome), % (concentration not given with the values); 1.6% of 350,000 active; AID 720706;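 active = significant combined selectivity score with lowered wild-type GFP, culture density cut under 30%, mutant RFP and density less affected; inactive = any of these conditions unmet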; note: one replicate is shown; some compounds called inactive have numbers as strong as hits
ALR H2O2 inh – blocks human ALR sulfhydryl oxidase activity. purified ALR, DTT oxidation, H2O2 HRP-luminol luminescence. 3.8% of 290,000 active. inhibition, % (no concentration beside the values);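 active = mean and each replicate at 75% or more; inconclusive = only one of the two met; inactive = neither met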;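 note: stock transfer was 7.5 nL into about 7.5 µL; 0% = neutral wells and 100% = wells with inactivated enzyme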
Target sequence (P55789 whole entry, looked up): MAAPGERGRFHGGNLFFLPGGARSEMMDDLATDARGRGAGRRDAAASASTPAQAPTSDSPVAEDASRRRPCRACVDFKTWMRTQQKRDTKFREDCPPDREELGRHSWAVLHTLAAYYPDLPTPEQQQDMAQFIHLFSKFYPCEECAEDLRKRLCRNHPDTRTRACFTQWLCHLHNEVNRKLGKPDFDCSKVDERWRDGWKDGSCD
Calb FLC – affects C. albicans growth with fluconazole; C. albicans CaCi-2 (fluconazole-resistant clinical isolate) + fluconazole, Alamar Blue growth, 48 h; growth inhibition, % (no concentration beside the values); 0.57% of 300,000 active; AID 1979;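 active = most replicates above 75%; inconclusive = exactly half above 75%; inactive = most below 75%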;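 note: all wells also contain fluconazole at 8 µg/ml as a sub-toxic cotreatment; 0% = median of DMSO wells and 100% = median of geldanamycin control wells; wells of about 8 µL received 7.5 nL stock; the first replicate is given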
T cruzi repl – T. cruzi replication inhibition; T. cruzi beta-gal in NIH3T3, luminescence, 90 h; inhibition, % (concentration not given with the values); 1.4% of 300,000 active; AID 1885;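 active = mean inhibition across valid replicates above about 55%, limit read from the data; inconclusive = mean below that limit but half or more replicates reach it; inactive = mean below it, under half of replicates reach it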;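 note: signal also drops with host cell toxicity which is not excluded here; 0% = plate median of DMSO wells and 100% = zero luminescence signal; higher percent means less beta-gal luminescence so fewer parasites; stock transfer was 50 nL into about 50 µL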
Beta cell apopt – blocks beta cell apoptosis. INS-1E cytokine-induced death, ATP luminescence, 48 h; percent of positive-control rescue, neutral wells zero. protection from apoptosis, % (test concentration not listed). 0.8% of 300,000 active. AID 435005;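 active = all replicates at 75% or more, or half of them and the mean; inconclusive = half reach 75% but not the mean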;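 note: 0% = cytokine-treated negative control wells and 100% = positive control rescue; higher means more ATP so stronger rescue from cytokine killing; wells of about 40 µL received 100 nL stock; the first replicate is given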
Bfl-1 A1 inh – inhibitors of the anti-apoptotic protein A1, read as caspase activation. MEF A1-2A-BIM cells, Caspase-Glo 3/7 luminescence, 3 h; percent of clofoctol response, vehicle zero. AID 2462. caspase activation, % (no concentration beside the values). 0.066% of 330,000 active;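 active = over half of replicate activation scores above 10%, or exactly half above 10 with the replicate mean above 10; inconclusive = replicate mean below 10 yet half the replicates above 10; inactive = over half of replicates below 10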;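 note: wells of about 30 µL received 50 nL stock; many hits fall short of the cut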
B2AR ag – activates human beta-2 adrenergic receptor causing internalization; 0.43% of 340,000 active; P07550; response, % (test concentration not listed); Am2.2-beta2AR cells, FAP receptor internalization, flow cytometry; reference of the scale not given here;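 active = response above a set limit, near 3 SD of response in nonfluorescent compounds, cut at about 42% in these data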;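 note: stock transfer was 100 nL into about 11 µL; a reference agonist was the positive control; negative values mostly stem from fluorescent compounds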
Target sequence (P07550 whole entry, looked up): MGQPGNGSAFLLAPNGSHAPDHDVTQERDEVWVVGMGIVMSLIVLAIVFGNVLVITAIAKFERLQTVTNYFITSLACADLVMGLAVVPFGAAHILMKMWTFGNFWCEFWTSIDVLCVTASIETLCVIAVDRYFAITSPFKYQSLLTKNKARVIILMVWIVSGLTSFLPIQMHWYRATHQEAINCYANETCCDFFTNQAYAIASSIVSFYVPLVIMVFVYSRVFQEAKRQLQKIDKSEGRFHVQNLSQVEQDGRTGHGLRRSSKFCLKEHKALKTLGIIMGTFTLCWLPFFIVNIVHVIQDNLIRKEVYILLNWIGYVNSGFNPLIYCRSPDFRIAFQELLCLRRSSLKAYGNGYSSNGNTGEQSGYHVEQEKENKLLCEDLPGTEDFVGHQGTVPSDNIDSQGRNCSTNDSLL
Ecoli rRNA inh OD600 – recorded beside Ecoli rRNA inh, whose call it bears; OD600 change, %; measured here: OD600 growth;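 optical density of the mix in the first replicate; 0 = DMSO median and -100 = no signal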
Ecoli rRNA inh RFP – further read-out of Ecoli rRNA inh, marked with its call; RFP signal change, %; measured here: RFP humanized mutant strains;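 first replicate; 0 = DMSO median and -100 = no signal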
An asterisk follows results filed as active. This is a subset. The share of hits here may be higher or lower than overall.

N#CCCN(C(=O)COC(=O)c1ccc(CNS(=O)(=O)c2ccc(F)c(Cl)c2)cc1)c1ccc(F)cc1 was read as LANA-H2A inh -0.1, ALR H2O2 inh -4, Calb FLC -1, T cruzi repl -5, Beta cell apopt -3, Bfl-1 A1 inh 0.6 and B2AR ag 3.
Cc1cccc(-n2nc3c(c2NC(=O)c2ccco2)CS(=O)C3)c1C (centres undefined) was read as Ecoli rRNA inh 7, Calb FLC 2, T cruzi repl -3, Beta cell apopt -2, Bfl-1 A1 inh 0.3, B2AR ag -1, Ecoli rRNA inh OD600 -3 and Ecoli rRNA inh RFP 0.4.
O=C(N/N=C/c1c(Cl)nc2ccccn2c1=O)c1cccnc1 was read as LANA-H2A inh 10, Ecoli rRNA inh 8, ALR H2O2 inh 41, Calb FLC 4, T cruzi repl -8, Beta cell apopt -9, Bfl-1 A1 inh 0.3, B2AR ag 17, Ecoli rRNA inh OD600 6 and Ecoli rRNA inh RFP -4.4.
Cc1ccc(Nc2nc(N)nc(CN3CCN(Cc4ccc5c(c4)OCO5)CC3)n2)cc1 was read as LANA-H2A inh 1.4, ALR H2O2 inh -9, Calb FLC 44, T cruzi repl 2, Beta cell apopt 1, Bfl-1 A1 inh 0.2 and B2AR ag -2.
Screening Nc1cc(-c2ccc(Br)cc2)nn1Cc1ccccc1 returned Ecoli rRNA inh -17, Calb FLC 4, T cruzi repl 15, B2AR ag 5, Ecoli rRNA inh OD600 -7 and Ecoli rRNA inh RFP -0.7.
`CC(C)C1N(S(=O)(=O)c2ccccc2)CCN1S(=O)(=O)c1ccccc1` gave LANA-H2A inh 0.5, ALR H2O2 inh -4, Calb FLC 4, T cruzi repl 7, Beta cell apopt -5, Bfl-1 A1 inh 0.8 and B2AR ag 4.
Screening COc1ccc(-n2cc(C(=O)Nc3cc([N+](=O)[O-])ccc3OC)c3ccccc3c2=O)cc1 returned LANA-H2A inh -1.5, Ecoli rRNA inh 8, ALR H2O2 inh -4, Calb FLC 5, T cruzi repl -7, Beta cell apopt 5, Bfl-1 A1 inh 0.0, B2AR ag -19, Ecoli rRNA inh OD600 10 and Ecoli rRNA inh RFP -2.0.
For Nc1ccccc1-c1nnc(SCc2ccccc2F)[nH]c1=O the results were LANA-H2A inh -1.8, ALR H2O2 inh -1, Calb FLC -3, T cruzi repl -9, Beta cell apopt -4, Bfl-1 A1 inh 0.7 and B2AR ag 4.
For O=C(CN(Cc1ccccc1)C(=O)CNS(=O)(=O)c1ccc(F)cc1)NCc1ccco1 the results were LANA-H2A inh 2.9, Ecoli rRNA inh -1, ALR H2O2 inh -1, Calb FLC -2, T cruzi repl 0, Beta cell apopt -2, Bfl-1 A1 inh 0.1, B2AR ag -4, Ecoli rRNA inh OD600 -2 and Ecoli rRNA inh RFP -0.3.
O=C1CCC(=O)N1c1ccccc1-c1ccccc1 was read as LANA-H2A inh 0.9, ALR H2O2 inh -11, Calb FLC -6, T cruzi repl -15, Beta cell apopt -3, Bfl-1 A1 inh inconclusive and B2AR ag -3.
`NC1=NC(c2ccc(Cl)cc2)C(C(=O)c2ccccc2)N1` (centres undefined) gave LANA-H2A inh -1.1, Ecoli rRNA inh -15, ALR H2O2 inh -1, Calb FLC -5, T cruzi repl -6, Beta cell apopt -10, Bfl-1 A1 inh 0.8, B2AR ag -5, Ecoli rRNA inh OD600 -6 and Ecoli rRNA inh RFP -2.2.
For COc1ccc2nc(SCC(=O)Nc3ccc(S(=O)(=O)Nc4onc(C)c4C)cc3)[nH]c2c1 the results were LANA-H2A inh -0.4, ALR H2O2 inh 50, Calb FLC 5, T cruzi repl -1, Beta cell apopt -5, Bfl-1 A1 inh 0.2 and B2AR ag -3.
O=S(=O)(NCc1ccccn1)c1ccccn1 was read as LANA-H2A inh -1.8, Ecoli rRNA inh -6, ALR H2O2 inh -22, Calb FLC -3, T cruzi repl 2, Beta cell apopt 1, Bfl-1 A1 inh -0.4, B2AR ag -3, Ecoli rRNA inh OD600 -3 and Ecoli rRNA inh RFP -5.9.
O=C(NCc1cccc(Br)c1)C1CC(c2ccccc2C(F)(F)F)=NO1 (centres undefined) was read as LANA-H2A inh -7.0, ALR H2O2 inh -2, Calb FLC 5, T cruzi repl -21, Beta cell apopt 4, Bfl-1 A1 inh -0.1 and B2AR ag -5.
`Cc1ccccc1N1CC(C(=O)Nc2nnc(SCC(=O)Nc3nccs3)s2)CC1=O` (centres undefined) gave LANA-H2A inh -3.9, ALR H2O2 inh -13, Calb FLC -10, T cruzi repl -3, Beta cell apopt -12, Bfl-1 A1 inh -0.4 and B2AR ag 6.
For COc1ccccc1C(c1nnnn1C(C)(C)C)N1CCCc2ccccc21 (centres undefined) the results were LANA-H2A inh -4.8, ALR H2O2 inh 11, Calb FLC -12, T cruzi repl 12, Beta cell apopt 7, Bfl-1 A1 inh -0.9 and B2AR ag 25.
Screening CCCCC(NC(=O)c1ccccc1)C(=O)OCC(=O)N1c2ccccc2Sc2ccccc21 (centres undefined) returned LANA-H2A inh -2.2, ALR H2O2 inh inconclusive, Calb FLC 1, T cruzi repl 34, Beta cell apopt 14, Bfl-1 A1 inh 1.0 and B2AR ag 13.
Screening S=c1[nH]nc([C@@H]2C[C@H]2c2ccccc2)n1-c1ccccc1Cl returned LANA-H2A inh -3.3, Ecoli rRNA inh -5, ALR H2O2 inh 47, Calb FLC -2, T cruzi repl -10, Beta cell apopt 0, Bfl-1 A1 inh -0.2, B2AR ag -3, Ecoli rRNA inh OD600 1 and Ecoli rRNA inh RFP -2.1.
Screening Cc1ccc(CCC(=O)Nc2ccccc2C(=O)O)o1 returned LANA-H2A inh -5.1, Ecoli rRNA inh 10, ALR H2O2 inh 21, Calb FLC -2, T cruzi repl -14, Bfl-1 A1 inh -7.2, B2AR ag -2, Ecoli rRNA inh OD600 4 and Ecoli rRNA inh RFP 0.4.
For O=C(NCC(c1ccco1)N1CCCC1)c1cc(=O)[nH]c2ccccc12 (centres undefined) the results were LANA-H2A inh -3.1, Ecoli rRNA inh 8, ALR H2O2 inh -6, Beta cell apopt 0, Bfl-1 A1 inh 0.6, B2AR ag -9, Ecoli rRNA inh OD600 15 and Ecoli rRNA inh RFP 0.7.
For O=C(c1cccc(S(=O)(=O)N2CCOCC2)c1)N1CCCc2ccccc21 the results were LANA-H2A inh 0.9, Calb FLC inconclusive, T cruzi repl 6, Beta cell apopt -1, Bfl-1 A1 inh 0.2 and B2AR ag 13.
`CCC(C)NC(=O)CN1C(=O)NC2(CCOc3ccccc32)C1=O` (centres undefined) gave LANA-H2A inh -3.2, Ecoli rRNA inh 3, ALR H2O2 inh -2, Calb FLC -3, T cruzi repl -1, Beta cell apopt 0, Bfl-1 A1 inh 0.8, B2AR ag -4, Ecoli rRNA inh OD600 10 and Ecoli rRNA inh RFP -1.8.
COC(=O)C1(CCSC)NC(c2ccc(O)cc2)C2C(=O)N(c3ccc4c(c3)OCCO4)C(=O)C21 (centres undefined) was read as LANA-H2A inh -0.5, Calb FLC 20, T cruzi repl 0, Beta cell apopt -2, Bfl-1 A1 inh -0.7 and B2AR ag 3.
Screening N#Cc1ccc(OCC(=O)NCCc2ccc(S(N)(=O)=O)cc2)cc1 returned LANA-H2A inh 0.9, ALR H2O2 inh -7, Calb FLC -1, T cruzi repl -3, Beta cell apopt -2, Bfl-1 A1 inh -0.2 and B2AR ag 2.
For COc1ccc(N2CCN(S(=O)(=O)c3c(C)[nH]c(C)c3C(=O)N3CCCCC3)CC2)cc1 the results were LANA-H2A inh 0.6, Ecoli rRNA inh -3, ALR H2O2 inh 60, Calb FLC 0, T cruzi repl 0, Bfl-1 A1 inh -0.4, B2AR ag -4, Ecoli rRNA inh OD600 -5 and Ecoli rRNA inh RFP -0.8.
For Cc1ccc(C(C)(C)NC(=O)C2CCC(=O)N(CC3CCCCC3)C2)cc1 (centres undefined) the results were LANA-H2A inh 1.5, Ecoli rRNA inh -6, ALR H2O2 inh -2, Calb FLC -1, T cruzi repl 7, Beta cell apopt 1, Bfl-1 A1 inh -1.1, B2AR ag -1, Ecoli rRNA inh OD600 -6 and Ecoli rRNA inh RFP -1.8.
`COc1ccccc1C(=O)N1CCN(c2cccc(Cl)c2)CC1` gave LANA-H2A inh -0.5, ALR H2O2 inh 22, Calb FLC -11, T cruzi repl 2, Beta cell apopt 12, Bfl-1 A1 inh -0.3 and B2AR ag -4.
O=C(CN1C(=O)COc2ccc(S(=O)(=O)N3CCOCC3)cc21)Nc1cccc(Cl)c1 was read as LANA-H2A inh 5.2, Ecoli rRNA inh -9, ALR H2O2 inh 0, Calb FLC -10, T cruzi repl 12, Beta cell apopt -1, Bfl-1 A1 inh 0.6, B2AR ag 1, Ecoli rRNA inh OD600 -8 and Ecoli rRNA inh RFP 3.1.
For CCOc1ccc(NC(=O)CN(C)Cc2ccc3c(c2)OCO3)cc1S(=O)(=O)N1CCCC1 the results were LANA-H2A inh -2.2, Ecoli rRNA inh -12, ALR H2O2 inh 1, Beta cell apopt -2, Bfl-1 A1 inh 1.1, B2AR ag 11, Ecoli rRNA inh OD600 -14 and Ecoli rRNA inh RFP 2.1.
Cc1cc(=O)[nH]c(N/N=C/c2ccc(Cl)c([N+](=O)[O-])c2)n1 was read as LANA-H2A inh 1.1, Ecoli rRNA inh 5, ALR H2O2 inh -3, Calb FLC 15, T cruzi repl 1, Beta cell apopt -5, Bfl-1 A1 inh 0.1, B2AR ag 1, Ecoli rRNA inh OD600 3 and Ecoli rRNA inh RFP -8.6.
`FC(F)(F)Sc1ccc(NC(=S)NCc2ccccc2)cc1` gave LANA-H2A inh -4.5, Ecoli rRNA inh -47, ALR H2O2 inh -8, Calb FLC -35, T cruzi repl 33, Beta cell apopt 18, Bfl-1 A1 inh -0.1, B2AR ag -6, Ecoli rRNA inh OD600 -45 and Ecoli rRNA inh RFP -12.
CC(C)CN(C(=O)COC(=O)CNC(=O)c1sc2ccccc2c1Cl)C1CCS(=O)(=O)C1 (centres undefined) was read as LANA-H2A inh 4.4, Ecoli rRNA inh 0, ALR H2O2 inh -6, Calb FLC -5, T cruzi repl -17, Beta cell apopt -2, Bfl-1 A1 inh 1.7, B2AR ag 2, Ecoli rRNA inh OD600 -2 and Ecoli rRNA inh RFP 4.8.
For O=C1CC(C(=O)Nc2ccccc2)S/C(=N\NC(=O)c2ccccc2Cl)N1 (centres undefined) the results were LANA-H2A inh -1.0, Ecoli rRNA inh 7, ALR H2O2 inh 7, Calb FLC 2, T cruzi repl -3, Beta cell apopt 1, Bfl-1 A1 inh -0.3, B2AR ag -18, Ecoli rRNA inh OD600 6 and Ecoli rRNA inh RFP 3.2.
COCCNC(=O)c1ccc(S(=O)(=O)N2CCCc3ccccc32)cc1 was read as LANA-H2A inh 4.1, Ecoli rRNA inh -5, Calb FLC 4, T cruzi repl -6, Beta cell apopt -2, Bfl-1 A1 inh -0.4, B2AR ag 6, Ecoli rRNA inh OD600 0 and Ecoli rRNA inh RFP -0.4.
